Insulin prom inh – inhibitors of insulin promoter-driven GFP, primary screen, imaging, TRM-6 cells (human fetal islet line), eGFP reporter, cell count | reporter expression induced with tamoxifen | inhibition, % at 2 µM | actives 0.9% (n = 130,000) | AID 1273, 2008;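 active = inhibition above the mean plus 3 SD, with well images judged a real hit on visual review, cut at about 60% in these data, passing the limit was not always enough; inconclusive = inhibition over the cutoff but images rejected on review; inactive = inhibition not above the cutoff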
GALR2 agonist – GALR2 receptor agonists, primary screen, cell-based; AID 803, 2007; actives 0.48% (n = 140,000); activation, %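 (tested at 5 µM)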; GALR2-expressing cells, agonist activation read-out; Galanin receptor type 2 (Homo sapiens), O43603;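 active = above mean plus 3 SD of all compounds, about 5% in these data, not always enough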;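 also: 0% = vehicle buffer wells and 100% = reference agonist at full effect; tested in CHO reporter cells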
RGS16-Gao HTS – modulators of RGS16 binding to Galphao, primary screen, biochemical, human proteins, multiplexed bead flow cytometry; actives 0.38% (n = 220,000); AID 1441, 2008; bead-based flow cytometry RGS16-Galphao binding, fluorescence; actives lie on both sides; binding response (% of control), % at 10 µM;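 active = below 25% or above 175%, edge rows of some plates excepted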;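 also: Galphao activated by GDP with aluminum fluoride before binding; 100% = wells without compound and 0% = beads without RGS; some results beyond the cut were filed as inactive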
PKD1 inh – inhibitors of human PKD1 kinase, biochemical, fluorescence polarization; Serine/threonine-protein kinase D1 (Homo sapiens), Q15139; PKD1 kinase fluorescence polarization assay; inhibition, %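 (about 10 µM by stock and volumes)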; actives 0.056% (n = 200,000);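 active = inhibition of 50% or more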;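 also: controls were vehicle for no effect and a reference inhibitor for full effect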
Target sequence (Q15139 whole entry, looked up): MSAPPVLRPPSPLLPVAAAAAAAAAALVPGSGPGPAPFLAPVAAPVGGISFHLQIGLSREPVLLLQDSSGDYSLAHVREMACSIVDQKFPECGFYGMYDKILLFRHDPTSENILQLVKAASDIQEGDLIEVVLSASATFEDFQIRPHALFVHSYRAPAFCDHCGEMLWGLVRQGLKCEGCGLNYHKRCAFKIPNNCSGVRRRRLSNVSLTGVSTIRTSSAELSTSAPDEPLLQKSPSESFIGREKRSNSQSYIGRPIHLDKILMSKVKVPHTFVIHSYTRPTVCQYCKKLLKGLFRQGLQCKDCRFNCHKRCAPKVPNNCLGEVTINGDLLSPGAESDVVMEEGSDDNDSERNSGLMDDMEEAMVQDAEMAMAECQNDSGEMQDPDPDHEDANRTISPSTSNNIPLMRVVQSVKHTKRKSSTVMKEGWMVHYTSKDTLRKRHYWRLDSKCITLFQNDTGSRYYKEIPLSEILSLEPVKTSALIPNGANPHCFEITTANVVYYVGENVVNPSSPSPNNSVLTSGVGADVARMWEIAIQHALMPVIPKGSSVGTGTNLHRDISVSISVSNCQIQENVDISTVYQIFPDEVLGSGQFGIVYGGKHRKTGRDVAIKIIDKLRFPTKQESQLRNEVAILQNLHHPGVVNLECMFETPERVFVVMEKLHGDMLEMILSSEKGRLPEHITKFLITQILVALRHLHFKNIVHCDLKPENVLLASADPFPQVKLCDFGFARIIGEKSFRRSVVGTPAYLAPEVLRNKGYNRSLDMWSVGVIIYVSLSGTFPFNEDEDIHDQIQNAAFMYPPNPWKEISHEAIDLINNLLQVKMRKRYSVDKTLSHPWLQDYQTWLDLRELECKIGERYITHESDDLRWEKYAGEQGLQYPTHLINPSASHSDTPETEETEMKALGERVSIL
HSV replic up – enhancers of HSV replication in host cells, fold increase, host cell viability | maximum fold increase | actives 0.005% (n = 220,000) | HSV replication augmentation in cells;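 active = peak rise of 1.5-fold or more in the series; inconclusive = self-fluorescent or not available for retest; tested in PC3 cells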;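 also: first round at 10 µM; read as green reporter fluorescence; hits show the peak of a series up to 25 µM; 1 = signal of infected wells without compound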
Insulin prom inh cell count – recorded beside Insulin prom inh, whose call it bears; normalized cell count, %; measured here: cell count, toxicity; reference of the scale not given here;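 cells exposed to compound for 48 h; stained nuclei by imaging scaled within each plate; lower means fewer cells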
HSV replic up primary fold – further read-out of HSV replic up, marked with its call; fold increase; compound at 10 µM; measured here: primary screen fold increase 10 uM; tested in PC3 cells;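 GFP signal in the first replicate; 1 = infected wells without compound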
Numbers without * were called inactive; i = inactive; ? = inconclusive; · = not tested or not shown. Hits appear at their usual frequency; about 1.3% have a hit in one of these screens.

SMILES	Insulin prom inh	Insulin prom inh cell count	GALR2 agonist	RGS16-Gao HTS	PKD1 inh	HSV replic up	HSV replic up primary fold
CCCC(NC(=O)c1ccccc1)c1nc2ccccc2n1Cc1ccc(C(=O)OC)o1 (configuration not stated)	·	·	1.3	95	-11	i	1
Cc1cccc(OCc2n[nH]c(=S)n2C2CCCCC2)c1	·	·	-1.9	62	-1	i	0.95
CCOC(=O)C1(CCc2ccccc2)CCN(C(=O)Cc2nonc2C)CC1	·	·	·	105	-6	i	1.1
O=c1[nH]c(=O)n([C@H]2C[C@H](O)[C@@H](CO)O2)cc1C(F)(F)F	-5	84	-0.7	107	-13	i	0.64
NC(=S)NNC(=O)c1cccc(Br)c1	50	118	·	104	-2	i	0.86
CN(CC(=O)Nn1cnnc1)S(=O)(=O)c1cc(Cl)ccc1Cl	-66	99	-1.9	102	11	i	0.93
CN=C1S/C(=C\c2cn(C(C)=O)nc2-c2ccccc2)C(=O)N1C	·	·	0.8	·	22	i	0.85
CCCCCCN(C(=O)CCCCCN1C(=O)NC(c2ccc(-c3ccccc3)cc2)C(C(=O)OCc2ccccc2)=C1C)C(C(=O)NCCCC)c1ccccn1 (configuration not stated)	·	·	·	95	·	i	0.94
CCCNC(=S)Nc1ccc(S(N)(=O)=O)cc1	·	·	·	101	-1	i	1.2
Cc1ccc2nc(NC(=O)c3ccccn3)sc2c1	·	·	·	97	-1	i	0.66
O=C(NC1CCCCC1)C1CCN(S(=O)(=O)c2cccc3cccnc23)CC1	·	·	-0.2	103	-14	i	0.9
CC(=O)N(C)C1=C(O)c2ccccc2C(=O)C1=O	·	·	-0.6	95	-1	i	0.85
CC(C)c1ccc(NC(=S)NCCc2c[nH]c3ccccc23)cc1	·	·	-2.1	143	-10	i	0.98
O=C1Nc2ccccc2N(O)N1c1cc(-c2ccccc2Cl)no1	·	·	1.4	99	-8	i	1.1
O=C(Nc1cccc2nsnc12)c1cccnc1	30	114	-0.1	22	-12	i	0.99
CCn1cc(/C=N\NC(=O)c2ccc3c(c2)c(C)c(C)n3Cc2ccccc2)c(C)n1	24	131	-1.9	98	-6	·	·
O=C(O)C(Cc1c[nH]c2ccccc12)NS(=O)(=O)c1ccc2ccccc2c1 (configuration not stated)	29	138	0.0	95	-5	i	1
O=C(O)C(Cc1c[nH]c2ccccc12)NS(=O)(=O)c1cccc2nsnc12 (configuration not stated)	·	·	-2.3	101	0	i	1.1
C=CCNC(=O)/C(C#N)=C/c1c(C)nn(-c2ccc(Cl)cc2)c1Cl	·	·	-1.4	101	-5	i	0.82
O=C(O)c1ccc(N/N=C/c2ccc(-c3ccccc3)cc2)cc1	-27	86	·	97	-2	i	1.1
CCOC(=O)C1C(=O)C=C(c2ccc(NS(C)(=O)=O)cc2)CC1c1ccco1 (configuration not stated)	29	87	0.3	83	-1	i	0.95
CCCCn1c(=O)c(-[n+]2ccccc2)c([O-])c2ccccc21	25	121	-1.5	93	-2	i	0.95
C=CCNC(=S)/N=c1/scc(C)n1C	29	99	-2.4	96	-5	i	1
Cc1c(S(=O)(=O)c2ccccn2)c(N)n(Cc2cccc(Cl)c2)c1C	·	·	·	97	·	?	·
COC(=O)C(NNc1ccccc1)(NC(=O)c1cccc(F)c1)C(F)(F)F (configuration not stated)	17	133	-0.7	63	3	i	0.99
CN(C)c1nc(N/N=C\c2ccc(Cl)c([N+](=O)[O-])c2)nc(Nc2ccc(F)cc2)n1	43	144	-3.4	·	4	·	·
Fc1ccc(N/N=C2/CCSc3sccc32)c(F)c1	·	·	·	103	·	i	1.2
Nc1nc2c(nc(SCc3ccccc3Br)n2C2OC(CO)C(O)C2O)c(=O)[nH]1 (configuration not stated)	-50	96	·	99	1	i	0.99
O=C(CSc1ccccn1)Nc1ccc(NC(=O)CSc2ccccn2)cc1	·	·	·	108	1	i	0.95
Cc1ccc(Sc2cnc(N)nc2C)cc1	·	·	·	104	1	i	0.96
COc1cc(C(=O)NC2CCN(Cc3nnnn3Cc3ccc(F)cc3)CC2)cc(OC)c1OC	i	30	·	106	3	i	1
O=C(Nc1ccc(Cl)cc1)Nc1nnc(CSCc2ccccc2Cl)s1	·	·	-0.8	101	8	i	0.94
O=c1c2ccccc2nc2n1CC/C2=C\c1ccccc1[N+](=O)[O-]	·	·	-1.3	118	9	i	0.94
CCOC(=O)c1c(C)[nH]c(-c2csc(N)n2)c1C	-56	35	·	105	0	i	0.81
COc1cccc(/C=C/C(=O)OCC(=O)Nc2ccc(Cl)cn2)c1	·	·	·	101	-6	i	0.89
O=c1c2cccnc2n(-c2ccccc2)n1Cc1c(Cl)cccc1Cl	11	68	·	103	-2	i	0.93
O=S(=O)(NCCc1ccccn1)c1ccc(-c2ccccn2)s1	·	·	·	106	·	i	0.8
O=C(Nc1nccs1)C1CCCN1S(=O)(=O)c1ccc(Cl)cc1 (configuration not stated)	14	86	-0.6	98	2	i	0.87
CC(C)CCN1CCN(Cc2nc(-c3ccccc3)cs2)CC1CCO (configuration not stated)	·	·	·	104	-3	i	1.1
Cc1cnc(C(=O)OCC(=O)NCCCc2ccccc2)cn1	·	·	·	108	3	i	0.88
Cc1ccc(S(=O)(=O)Nc2c(C)n(C)n(-c3ccccc3)c2=O)cc1C(=O)OC(C)C(=O)N(C)c1ccccc1 (configuration not stated)	27	49	·	110	2	i	1
Cc1ccc(N(CC(=O)NC(C)(C)C)C(=O)CS(=O)CC(=O)Nc2ccc3c(c2)OCO3)cc1 (configuration not stated)	·	·	·	111	-3	i	0.96
Cc1ccsc1/C=N/n1cnc2sc(C)c(C)c2c1=O	·	·	-0.5	102	-6	i	0.96
COc1ccc(C(=O)N2CC(=O)Nc3ccccc32)cc1S(=O)(=O)N1CCOCC1	·	·	·	86	·	i	0.89
COc1cccc2cc(C(=O)c3ccccc3)oc12	45	90	·	105	14	i	0.92
CC(C)CCn1c(SCC#N)nc2c(sc3ccccc32)c1=O	26	146	0.6	96	-7	i	0.74
CCn1c(SCC(=O)c2ccc(O)c(O)c2)nnc1-c1ccccc1OC	-45	99	-0.6	96	9	i	1
CCS(=O)(=O)N1CCC(C(=O)N2CCN(c3ccccc3)CC2)CC1	6	79	-1.5	99	3	i	0.97
Cc1nccc2[nH]c(=O)c(C(=O)NCCCN(C)C3CCCCC3)cc12	18	105	-3.4	92	6	i	0.96
Cc1ccc(C(CCN)c2ccco2)cc1 (configuration not stated)	-12	92	-2.3	103	-3	·	·
CC(C)(C)NC(=O)C1Cc2ccccc2CN1S(=O)(=O)c1ccc(F)cc1 (configuration not stated)	7	146	·	99	2	i	1
CCN(CC)S(=O)(=O)c1ccc(NC(=O)c2ccccn2)cc1	·	·	-0.5	108	-2	i	1.1
COc1ccccc1NC(=S)N1CCc2cc(OC)c(OC)cc2C1	10	142	-0.9	100	1	i	1.1
O=C(Nc1ccc2c(c1)nc1n2CCOC1)C1CCCCC1	·	·	-1.2	49	-3	i	0.86
CCOc1ccc(N(CC(=O)NC2CCCC2)C(=O)CCCC(=O)Nc2ccccn2)cc1	-6	104	-2.6	-3	-9	i	0.87
CC1CN(C(=O)c2cnn3c(C(F)F)cc(-c4ccccc4)nc23)CC(C)O1 (configuration not stated)	-17	121	-0.8	104	-1	i	0.89
CCN(CC)C(=O)COc1ccc(C=O)cc1OC	-60	63	0.2	114	-11	i	0.92
CC(C)CNc1nc(N)c([N+](=O)[O-])c(NCC2CCCO2)n1 (configuration not stated)	-4	154	0.2	105	22	i	0.76
CC1(NC(=O)COc2ccccc2-c2ccccc2)CCS(=O)(=O)C1 (configuration not stated)	-53	103	-2.2	92	-6	i	0.9
C=CCOC(=O)C1CC=CCC1C(=O)Oc1ccc(F)cc1F (configuration not stated)	-64	55	-1.7	95	-4	i	0.96

Three of the entries above in order of the RGS16-Gao HTS value, falling.
molecule | RGS16-Gao HTS
NC(=S)NNC(=O)c1cccc(Br)c1 | 104
O=C(NC1CCCCC1)C1CCN(S(=O)(=O)c2cccc3cccnc23)CC1 | 103
CCOC(=O)C1C(=O)C=C(c2ccc(NS(C)(=O)=O)cc2)CC1c1ccco1 (configuration not stated) | 83

Other records.
SMILES	Insulin prom inh	Insulin prom inh cell count	GALR2 agonist	RGS16-Gao HTS	PKD1 inh	HSV replic up	HSV replic up primary fold
CC(C)(CO)NC(=O)CC1C(=O)NCCN1Cc1ccc(-c2ccccc2)cc1 (configuration not stated)	·	·	·	111	1	i	0.87
CC1CCc2c(sc(NC(=O)Cn3nc(C(=O)O)c4ccccc4c3=O)c2C#N)C1 (configuration not stated)	·	·	·	80	·	i	1
Cc1cc(/C=N/NC(N)=O)c(C)n1C1CCCCC1	11	105	·	103	10	i	1.1
COc1ccc(/C=C/C(=O)NCCn2c(C)cc3ccccc32)cc1OC	41	84	-2.1	102	-4	i	0.87
CN1CCN(S(=O)(=O)c2cnccc2N2CCN(c3cccc(Cl)c3)CC2)CC1	-15	137	-0.5	89	3	i	0.82
Cc1ccc2nc(NC(=O)COC(=O)c3ccco3)sc2c1	-52	125	-1.2	99	-1	i	0.77
CCCC(=O)Nc1ccc2c(c1)nc(CCN1CCCCC1)n2C	·	·	·	102	·	i	1
COc1ccc(-n2c(C)cc(C(=O)CN3CCCCC3)c2C)cc1	43	136	·	104	8	i	1
CCC(=O)c1cc2c(cc1NC(=O)c1ccccc1)OCCO2	·	·	-1.9	101	4	i	0.93
COc1ccc(C(=O)Nc2nc3nccc(-c4ccccc4)n3n2)cc1	8	44	0.5	106	-3	i	0.92
CCOC(=O)N1CCC(=C(C#N)C(=O)Nc2cc(OC)ccc2OC)CC1	·	·	-2.1	102	4	i	0.9
COC(=O)CCc1c(C)c(C(=O)c2ccc(F)cc2)c2ccccn12	·	·	·	99	-3	i	1
COC(=O)c1ccc(NC(=O)N2CCC(O)(c3cccnc3)CC2)cc1	54	62	-2.7	106	-21	·	·
COc1ccc(S(=O)(=O)NC(N)=NCCc2ccc(OC)c(OC)c2)cc1C	·	·	·	93	-3	i	1
Cc1ccc(NCc2nnc(SCC(=O)c3ccccc3)n2Cc2ccco2)c(C)c1	·	·	0.6	81	-12	i	0.99
COc1cc(OC)c2c(c1)S(=O)(=O)C(c1ccccc1)=C2N	50	103	·	104	3	i	0.91
CN(Cc1ccco1)S(=O)(=O)c1ccc2c(c1)CCN2C(=O)CCC(=O)O	-106	114	-1.6	120	-6	i	0.9
O=C(Cn1cc2c(n1)CCCCC2)N1CCc2ccccc2C1	·	·	-2.1	104	-14	i	0.92
CCOC(=O)CN1CC23C=CC(O2)C(C(=O)N2CCN(c4ccc(F)cc4)CC2)C3C1=O (configuration not stated)	·	·	-0.7	109	-4	i	0.88
Cc1cc(C)c(NC(=O)C2CCCN2C(=O)NC2CCCCC2)c(C)c1 (configuration not stated)	-10	136	-1.2	107	-10	i	0.95
CCOc1c2ccc(C(=O)NC3CCCc4ccccc43)cc2nn1C (configuration not stated)	·	·	-2.2	104	-2	i	0.97
Cc1nc2ccc(NS(=O)(=O)c3c(C)c(C)cc(C)c3C)cc2s1	11	129	-1.3	105	9	i	0.91
Cc1sc(N)c(C(=O)c2ccccc2Cl)c1C	-23	64	·	110	14	i	1.2
Cc1ccccc1NC(=S)NC(C)C(c1ccccc1)N1CCN(C)CC1 (configuration not stated)	60	103	·	103	5	i	0.83
Cc1cccc(C)c1NC1=NC(=S)N(c2ccccc2)C12CCOC(C)(C)C2 (configuration not stated)	-10	109	-2.1	95	0	i	1

4 of the compounds above, field by field:
compound: CC1CCc2c(sc(NC(=O)Cn3nc(C(=O)O)c4ccccc4c3=O)c2C#N)C1 (configuration not stated)
- Insulin prom inh: ·
- Insulin prom inh cell count: ·
- GALR2 agonist: ·
- RGS16-Gao HTS: 80
- PKD1 inh: ·
- HSV replic up: i
- HSV replic up primary fold: 1

compound: Cc1cc(/C=N/NC(N)=O)c(C)n1C1CCCCC1
- Insulin prom inh: 11
- Insulin prom inh cell count: 105
- GALR2 agonist: ·
- RGS16-Gao HTS: 103
- PKD1 inh: 10
- HSV replic up: i
- HSV replic up primary fold: 1.1

compound: COc1ccc(/C=C/C(=O)NCCn2c(C)cc3ccccc32)cc1OC
- Insulin prom inh: 41
- Insulin prom inh cell count: 84
- GALR2 agonist: -2.1
- RGS16-Gao HTS: 102
- PKD1 inh: -4
- HSV replic up: i
- HSV replic up primary fold: 0.87

compound: CN1CCN(S(=O)(=O)c2cnccc2N2CCN(c3cccc(Cl)c3)CC2)CC1
- Insulin prom inh: -15
- Insulin prom inh cell count: 137
- GALR2 agonist: -0.5
- RGS16-Gao HTS: 89
- PKD1 inh: 3
- HSV replic up: i
- HSV replic up primary fold: 0.82

Source: PubChem BioAssay (several laboratories)
